# GIV Gai3 FP: inhibitors of GIV GBA-motif binding to rat Galpha-i3; 0.42% of 210,000 active; Galpha-i3/FITC-GIV peptide fluorescence polarization, 90 min; stronger effect = lower value; scaled: aluminum fluoride 0%, vehicle 100%; percent of control (FP), % (concentration not given with the values);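 active = replicate mean at 85% of control or lower, very high polarization wells dropped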;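 also: wells of about 15 µL received 100 nL stock; the first replicate is given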
# Target sequence (P08753 whole entry, looked up): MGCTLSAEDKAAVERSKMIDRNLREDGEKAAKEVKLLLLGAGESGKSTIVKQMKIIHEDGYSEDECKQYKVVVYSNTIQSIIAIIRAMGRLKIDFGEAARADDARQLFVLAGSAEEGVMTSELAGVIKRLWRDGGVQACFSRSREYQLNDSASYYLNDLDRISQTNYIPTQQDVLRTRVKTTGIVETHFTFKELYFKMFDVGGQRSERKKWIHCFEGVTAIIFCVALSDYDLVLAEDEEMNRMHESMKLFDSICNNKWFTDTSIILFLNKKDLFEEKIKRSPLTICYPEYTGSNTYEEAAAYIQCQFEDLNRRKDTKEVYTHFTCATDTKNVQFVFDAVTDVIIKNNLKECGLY
# Starred values were filed as active, the others as inactive; & = joins results of further samples. These rows are one share of the data; rates above refer to the full screens.
structure,GIV Gai3 FP
CN1C(=O)N(C)C2NC(=O)NNC21 (configuration not stated),111
CC1C=CCC2C(=O)N(c3cccc(C(=O)OCC(=O)c4ccc(Cl)c([N+](=O)[O-])c4)c3)C(=O)C12 (configuration not stated),108
CCSc1nccc2c1ccn2CC(=O)NCc1ccc(CC)cc1,103
Cc1ccn2c(=O)c(NC(=O)c3ccc(Br)cc3)c(C)nc2c1,103
O=C1CCCC2=C1C(c1ccc(OCc3ccccc3F)cc1)C1=C(CCCC1=O)O2,105
CCOc1ccc(C2(c3ccccc3Cl)CCCCC2)cc1,113
Cc1ccc2c(c1)-c1c(ssc1=Nc1cccc(Cl)c1)C(C)(C)N2C,104
CC1CCN(C(=O)C2CC(=O)N(c3ccc4c(c3)CCN4C(=O)C3CC3)C2)CC1 (configuration not stated),111
NC(=O)C1CCN(Cn2nc(-c3ccccc3)n(-c3ccccc3)c2=S)CC1,104
COc1ccccc1CC(=O)N1CCCc2ccccc21,111
COc1cc(-c2ccccc2)nc2ccc(NC(=O)NCc3ccccc3)cc12,106
CCOc1ccc(N2C(=O)C(C)SC23C(=O)Nc2ccccc23)cc1 (configuration not stated),105
O=C(c1cccs1)N1CCC(Nc2ncnc3c2CCC3)C1 (configuration not stated),100
CN(C)S(=O)(=O)c1ccc2c(c1)cc(C(=O)NCc1ccc(Cl)cc1)n2Cc1ccncc1,100
O=C1c2ccccc2C(=O)N1CC1c2ccccc2CCN1S(=O)(=O)c1ccc(F)cc1 (configuration not stated),105
Cc1nc2sc(C(=O)Nc3cccc4ccccc34)c(N)c2c(C)c1Cl,115
COC(=O)c1ccc(N2C(=O)/C(=C/c3ccc(Cl)cc3)C=C2c2ccccc2)cc1,95
Cn1c(=O)c2c(nc3n(Cc4ccccc4)c(-c4ccc(Cl)cc4)cn23)n(C)c1=O,104
O=C(c1ccc2c(c1)nnn2Cc1ccccc1)N1CCN(c2ccccn2)CC1,106
COc1cc(Br)c(C2C(C(=O)N3CCOCC3)=C(C)NC3=C2C(=O)CCC3)cc1OC (configuration not stated),93
O=[N+]([O-])c1c(NCCCO)cc(NC2CCCCCC2)c2nonc12,100
CCOc1cc(C2CC(=O)Nc3c2c(C)nn3-c2ccc3nncn3n2)ccc1OC1CCCC1 (configuration not stated),97
COc1ccc(C2(c3ccccc3)C=Cc3c(ccc4ccccc34)O2)cc1 (configuration not stated),102
CC(=O)C1=NN(c2ccc(Cl)cc2)C2(S1)c1ccccc1C(c1ccc(C(C)C)cc1)=NN2c1ccccc1 (configuration not stated),110
O=C(CSc1nc2ccsc2c(=O)n1C1CCCCC1)Nc1nccs1,104
Cc1nn(-c2ccccc2)c2ccn(CC(=O)N3CCN(c4ccc(Cl)cc4)CC3)c(=O)c12,97
C=CCN(c1ccccc1)S(=O)(=O)c1ccc2[nH]cc(C(=O)N3CCC4(CC3)OCCO4)c(=O)c2c1,99
C=CCn1c(=O)c(N2CCC(NC(=O)NCCCOCC)CC2)nc2cccnc21,99
Cc1cccn2c(=O)c(/C=C3\SC(=S)N(CCCCCC(=O)O)C3=O)c(N3CCCC3)nc12,272
CC1CN(c2oc(-c3ccc(Cl)cc3)nc2[P+](c2ccccc2)(c2ccccc2)c2ccccc2)CC(C)O1 (configuration not stated),97
CCN(Cc1ccccc1)C(=O)c1cc(NC(=O)c2ccc(C)cc2)cnc1N1CCNCC1,98
CCCS(=O)(=O)c1c(S(=O)(=O)CCC)c2cc(-c3ccncc3)ccn2c1C(=O)N/N=C/c1ccccc1,122
CCOc1ccc(OCC)c(S(=O)(=O)N2CCN(c3nc(C)cc(N4CCOCC4)n3)CC2)c1,102
Cc1[nH]n(-c2ccccc2)c(=O)c1C(c1ccc(C#N)cc1)c1c(C)[nH]n(-c2ccccc2)c1=O,71*
O=C(CSc1nc2ccc(NC(=O)c3ccccc3F)cc2s1)Nc1ccc([N+](=O)[O-])cc1,96
CCCCNC(=O)c1cn(C)c2c(c(C)nn2-c2ccc(F)cc2)c1=O,101
COc1cccc(C2=NN3C(C2)c2cc(Cl)ccc2OC3c2cc(OC)c(OC)c(OC)c2)c1 (configuration not stated),112
COc1ccc(-c2cc(-c3ccccc3)nc3sc(C(=O)NC4CC4)c(N)c23)cc1,106
c1ccc(CNc2nc(C3CC3)nc3c2CCC3)nc1,102
C=CCn1c(=O)c(=O)n(CC(=O)N2CCC(N3CCCCC3)CC2)c2ccccc21,106
CCN(c1ccccc1)S(=O)(=O)c1ccc2[nH]cc(C(=O)NCCc3ccc(OC)c(OC)c3)c(=O)c2c1,103&101
CNC(C)(C)c1nnnn1-c1cccc(C)c1,103
CC(C)OCCCNC(=O)c1ccc2c(=O)n(Cc3ccco3)c(SCC(=O)Nc3nccs3)nc2c1,114
Cc1ccc(C(C)C)cc1Oc1ccc(Cl)cc1NC(=O)c1cc(Cl)cc(Br)c1O,111
COC(=O)CNC(=O)N1CCCC1c1c(C)noc1C (configuration not stated),102
Cc1ccc(-c2nc3s/c(=C\c4ccc(OCc5ccccc5)cc4)c(=O)n3n2)cc1,108
Cc1nc2sccn2c(=O)c1NC(=O)C1CCCCC1,106
O=C(Nc1cc(Cl)ccc1Oc1ccc2ccccc2c1Cl)c1cc(Cl)cc(Cl)c1O,110
O=C(NCCC1=CCCCC1)c1cc(-c2ccccn2)nc2ccc(S(=O)(=O)N3CCOCC3)cc12,105
CC1=C(C)C2c3ccccc3C1C1C(=O)N(Cc3ccc(Br)cc3)C(=O)C21 (configuration not stated),109

# Next compounds follow:
structure,GIV Gai3 FP
COc1ccc(S(=O)(=O)N2CCn3cccc3C2c2ccccc2)cc1OC (configuration not stated),98
COc1ccc(/C=C2\C=C(c3ccccc3)N(c3ccc(C)cc3Br)C2=O)cc1Br,111
CCCc1[nH]n(-c2ccc(F)cc2)c(=O)c1C=Nc1ccccc1C(=O)OC,109
O=C(CN1C2=NCCN2c2ccccc21)c1ccc(-c2ccccc2)cc1,111
COc1ccccc1N1CCN(c2ncnc3sc4c(c23)CCC4)CC1,96
CCCCN1CCN(S(=O)(=O)c2cc(-c3nnc(CC)o3)co2)CC1,100
CC1=C(C(=O)OCCOc2ccccc2)C(c2cc3c(cc2Cl)OCO3)C2=C(CCCC2=O)N1 (configuration not stated),104
CCOC(=O)c1sc2nc(SCC#N)n(Cc3ccco3)c(=O)c2c1C,112
Ic1ccc2c3ccc(I)cc3c3[nH]c(-c4cccc(Oc5ccccc5)c4)nc3c2c1,103
COCCNC(=O)Cn1ccc2c(SCc3ccc(OC)cc3)nccc21,105
COc1cc(C2C(N3C(=O)c4ccccc4C3=O)C(=O)N2c2cc(C)cc(C)c2)cc(OC)c1OC (configuration not stated),107
COc1ccc(CCNC(=O)CSc2nc3ccccc3c(=O)n2CCC(=O)NCCc2ccccc2)cc1OC,105
CCOc1cc(C2C3=C(CC(C)(C)CC3=O)OC3=C2C(=O)CC(C)(C)C3)ccc1OC(=O)N1CCOCC1,108
O=C(Nc1c(-c2ccccc2)nc2ccccn12)c1cccs1,114
Cc1ccc(S(=O)(=O)CCc2nc(-c3ccc4c(c3)Sc3ccccc3C(=O)N4C)no2)cc1,96
CC(=O)Nc1ccc(-c2noc(C3CCCN(C(=O)Cc4ccc(Br)cc4)C3)n2)cc1 (configuration not stated),104
CC(C)c1ccc(S(=O)(=O)Nc2cccc(-c3nnc(-c4ccccc4)o3)c2)cc1,103
CCCCOC(=O)c1ccc(-c2ccc(/C=c3\sc4nc5ccccc5n4c3=O)o2)cc1,102
C=CCOC(=O)C1=C(C)OC(N)=C(C#N)C1c1ccccc1Cl (configuration not stated),110
CCOC(=O)c1sc2nc(SCC#N)n(CCCN3CCCC3=O)c(=O)c2c1C,103
COc1ccc(Cn2nnc3cc(C(=O)NCc4ccccc4Cl)ccc32)cc1,108
O=C(NCCCN1CCCCC1)C1=C2CCCN2c2ccc(F)cc2S1(=O)=O,105
c1ccc(-c2nc3ccccc3c3nnc(SCc4ccncc4)n23)cc1,99
CCCN(CCC)c1ncc(S(=O)(=O)c2ccc(C)cc2C)c(N)n1,109
CCn1nc(C)c2ccnc(N3CCC(C(=O)N4CCN(c5ccc(Cl)cc5)CC4)CC3)c21,105
COc1ccc(-c2cn3cc(C)ccc3n2)cc1F,100
Cc1ccc(NC(=O)c2ccc3c(c2)S(=O)(=O)N=CN3CCc2ccccc2)cc1,107
COC(=O)c1ccc2nc(NC(=O)CSCC(=O)OCC(=O)c3ccc(Br)cc3)sc2c1,116
CCCN1C(=O)/C(=c2/s/c(=C3\C=Cc4ccccc4N3CC)c(=O)n2Cc2ccccc2)SC1=S,104
CCCN1CCN(S(=O)(=O)c2c(C)[nH]c(C)c2-c2nnc(C3CCC3)o2)CC1,106
Cc1cc(C)n(-c2nc3c(c(=O)n2CC(=O)NC(C)C)CCCC3)n1,100
O=C(CN1CCN(S(=O)(=O)c2ccc3c(c2)CCCC3)CC1)Nc1nnc(-c2ccccc2)s1,99
COc1cc(NC(=O)CSc2nc3[nH]ncc3c(=O)n2-c2ccc(Cl)cc2Cl)cc(OC)c1OC,107
CCN(CC)c1cc(N)c([N+](=O)[O-])c2nonc12,101
O=C(NCCCN1CCOCC1)c1ccc2nc(-c3ccccc3)c(-c3ccccc3)nc2c1,105
O=C1CCCc2oc3c(Br)cc(NS(=O)(=O)c4ccc5ccccc5c4)cc3c21,115
Cc1nc(CCNC(=O)[C@H]2CSCN2S(=O)(=O)c2ccc(F)c(Cl)c2)cs1,99
CC(C)c1ccc(-n2c(-c3ccccc3)c3c(c2-c2ccc(Cl)cc2)C(=O)c2ccccc2C3=O)cc1,109
Cc1cc(OCc2nc(-c3ccc(NC(=O)c4cccs4)cc3)no2)ccc1Cl,96
O=C(/C=C/c1ccccc1)Nc1cc(C(=O)N2CCc3ccccc3C2)ccc1N1CC2CC(C1)c1cccc(=O)n1C2 (configuration not stated),108
COc1ccc(NC(=O)C2CCCN(C(=O)C3Sc4ccccc4NC3=O)C2)cc1 (configuration not stated),105
O=C(c1cccc(Cl)c1)N1c2ccccc2Sc2ccccc21,104
CCOC(=O)C1=c2s/c(=C/c3ccccc3Cl)c(=O)n2C(N)=C(C#N)C1c1ccccc1Cl (configuration not stated),113
Cc1nc2cc(C(=O)NCC3CCCO3)ccc2n1-c1ccc(OCc2ccccc2)cc1 (configuration not stated),105
CCOc1cc(C2C(C#N)=C(N)Oc3n[nH]c(-c4ccc(OC)cc4)c32)cc(Br)c1O (configuration not stated),107
Cc1cc(C)c(S(=O)(=O)Nc2ccc3oc4c(c3c2)CC(C(C)(C)C)CC4)c(C)c1 (configuration not stated),107
CC1C(C#N)=C(SCC(=O)Nc2ccc(Br)cc2)NC2=C1C(=O)CC(C)(C)C2 (configuration not stated),100
O=S(=O)(c1ccc2c(c1)-c1oncc1CO2)N1CCCCCC1,97
O=C(CCCCCn1c(=S)[nH]c2ccccc2c1=O)N1CCC(O)(c2cccc(C(F)(F)F)c2)CC1,111
O=C(NC1CC1)c1csc(N2CCCC2)n1,109

# Arranged by count of non-hydrogen atoms (low to high): 7 of the compounds above.
structure,GIV Gai3 FP
O=C(c1cccc(Cl)c1)N1c2ccccc2Sc2ccccc21,104
Cc1nc(CCNC(=O)[C@H]2CSCN2S(=O)(=O)c2ccc(F)c(Cl)c2)cs1,99
CC1C(C#N)=C(SCC(=O)Nc2ccc(Br)cc2)NC2=C1C(=O)CC(C)(C)C2 (configuration not stated),100
COC(=O)c1ccc2nc(NC(=O)CSCC(=O)OCC(=O)c3ccc(Br)cc3)sc2c1,116
CCOC(=O)C1=c2s/c(=C/c3ccccc3Cl)c(=O)n2C(N)=C(C#N)C1c1ccccc1Cl (configuration not stated),113
O=C(CN1CCN(S(=O)(=O)c2ccc3c(c2)CCCC3)CC1)Nc1nnc(-c2ccccc2)s1,99
CCCN1C(=O)/C(=c2/s/c(=C3\C=Cc4ccccc4N3CC)c(=O)n2Cc2ccccc2)SC1=S,104

# Individual results from the results shown:
# O=S(=O)(c1ccc2c(c1)-c1oncc1CO2)N1CCCCCC1 | GIV Gai3 FP: 97
# CC1C(C#N)=C(SCC(=O)Nc2ccc(Br)cc2)NC2=C1C(=O)CC(C)(C)C2 (configuration not stated) | GIV Gai3 FP: 100

# Next section
structure,GIV Gai3 FP
CCOC(=O)C1=C(O)/C(=C/c2ccc(Cl)c(Cl)c2)SC1=Nc1ccc([N+](=O)[O-])cc1,110
O=C(c1ccc(Cl)cc1)N1CCN(C(=O)c2cc3ccccc3[nH]2)CC1,101
COc1ccc(C2CC(=O)Nc3c2c(C)nn3-c2ccc3nnc(C)n3n2)cc1Br (configuration not stated),97
O=C(NCc1ccc2c(c1)OCO2)C1CCCN(c2ncc(-c3ccc(F)cc3)cn2)C1 (configuration not stated),100
O=C(NC1CC1)C1CC(=O)N(c2ccc3c(c2)CCN3C(=O)C2CCC2)C1 (configuration not stated),98
CCOCCCNC(=O)c1ccc2c(c1)nc(C)n2-c1cc(OC)c(OC)c(OC)c1,104
CCCNS(=O)(=O)c1c(C)[nH]c(-c2nnc(C3CCC3)o2)c1C,111
COc1ccc(S(=O)(=O)NCc2nc3cccnc3n2C2CC2)cc1,109
CCSc1sc(CC)cc1C1C(C(=O)Nc2ccc(C)cn2)=C(C)NC2=C1C(=O)CC(C)(C)C2 (configuration not stated),101
COc1ccccc1N1CCN(c2ncc(NC(=O)c3ccc(Cl)cc3)cc2C(=O)O)CC1,111
CSc1nc2nc3c(cc2c(=O)n1-c1ccccc1)COC(C)(C)C3,110
Brc1ccc(-c2nc(-c3ccc4c(c3)ncn4C3CCCC3)no2)o1,96
COc1cc(C2=N/C(=C\c3coc4c(Cl)cc(Cl)cc4c3=O)C(=O)O2)cc(OC)c1OC,112

# Entries above marked active in GIV Gai3 FP.
structure,GIV Gai3 FP
Cc1[nH]n(-c2ccccc2)c(=O)c1C(c1ccc(C#N)cc1)c1c(C)[nH]n(-c2ccccc2)c1=O,71*
